Screening data as filed in PubChem.
Polio RdRp inh: inhibitors of poliovirus RNA polymerase binding and polymerization. % elongation, % (compound at 16.7 µg/mL). 0.66% of 150,000 active. poliovirus polymerase elongation, fluorescence polarization; stronger effect = lower value; in the data active = % elongation below about 90%; also: some results filed as inactive read as strong as hits
Target sequence (P03300 1749-2209 limits assumed): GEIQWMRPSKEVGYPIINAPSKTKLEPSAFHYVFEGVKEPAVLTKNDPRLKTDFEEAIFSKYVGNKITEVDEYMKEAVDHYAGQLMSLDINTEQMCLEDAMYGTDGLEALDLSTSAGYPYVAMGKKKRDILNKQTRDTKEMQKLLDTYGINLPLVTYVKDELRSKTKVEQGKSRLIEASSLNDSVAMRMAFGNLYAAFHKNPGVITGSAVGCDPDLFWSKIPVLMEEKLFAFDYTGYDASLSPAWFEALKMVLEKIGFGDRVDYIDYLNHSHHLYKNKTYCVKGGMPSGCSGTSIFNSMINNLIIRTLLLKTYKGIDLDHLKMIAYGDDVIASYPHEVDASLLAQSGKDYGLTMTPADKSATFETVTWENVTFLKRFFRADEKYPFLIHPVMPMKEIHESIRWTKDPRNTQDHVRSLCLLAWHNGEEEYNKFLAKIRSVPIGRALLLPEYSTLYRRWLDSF
MbtI inh: blocks the Mycobacterium tuberculosis siderophore enzyme MbtI; P9WFX0; purified MbtI enzyme, fluorescence intensity read-out; inhibition, %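 (about 17 µg/mL by stock and volumes)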; 0.89% of 100,000 active;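 active = above 50% in both replicates, above 80% if mildly self-fluorescent; inactive = the rest, strongly fluorescent compounds included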;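 also: 0% = mean of negative and 100% = mean of positive controls; one replicate is shown; some compounds called inactive have numbers as strong as hits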
MenB inh: blocks the Mycobacterium tuberculosis MenB enzyme; P9WNP5; MenB enzyme assay, absorbance read-out; some hits fall short of the stated cut; inhibition, %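 (about 12 µg/mL by stock and volumes)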; 0.43% of 100,000 active; AID 540299;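 active = mean of two replicates above 30%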;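 also: 0% = no compound and 100% = wells with inactive enzyme; the first replicate is given; strong numbers were not always called active; inactives centre near -10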
Target sequence (P9WNP5 whole entry, looked up): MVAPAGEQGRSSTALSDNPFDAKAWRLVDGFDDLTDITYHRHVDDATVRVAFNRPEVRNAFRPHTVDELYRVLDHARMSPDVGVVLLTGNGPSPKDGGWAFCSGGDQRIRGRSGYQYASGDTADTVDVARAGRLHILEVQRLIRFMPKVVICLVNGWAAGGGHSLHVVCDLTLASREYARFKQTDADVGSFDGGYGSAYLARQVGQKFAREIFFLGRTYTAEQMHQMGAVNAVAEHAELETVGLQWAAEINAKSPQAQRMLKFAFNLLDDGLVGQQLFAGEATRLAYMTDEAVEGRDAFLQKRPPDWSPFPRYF
Polio RdRp inh intensity: recorded beside Polio RdRp inh, whose call it bears; % elongation; measured here: total intensity read-out; formula for this scale not given here;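 total fluorescence in place of polarization; lower means less elongation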
* marks the source's active call; other numbers are inactive results; i = inactive; . = no result given.

Value order – Polio RdRp inh, Polio RdRp inh intensity, MbtI inh, MenB inh
O=S(=O)(NC1=NCCCCC1)c1ccc2ccccc2c1
  103, 104, -8, .
Nc1nc(COC(=O)C2CCN(S(=O)(=O)c3c(Cl)cccc3Cl)CC2)nc(Nc2ccccc2)n1
  109, 105, -4, -36
Cc1ccc(S(=O)(=O)NC2=NCN(CCN3CCOCC3)CN2)cc1
  104, 110, -10, 0
CCCC1C2CN(C(C)C)CC=C2C(C#N)=C(N)C1(C#N)C#N (configuration not stated)
  73, 145, 89, -181
NC(=O)C1CCN(C(=O)c2ccc3c(c2)S(=O)(=O)c2ccccc2C3=O)CC1
  102, 100, -4, -17
O=C(CNC(=O)C1CCCCC1)Nc1ccc(S(=O)(=O)NCc2ccco2)cc1
  105, 110, -7, -24
O=C(O)C1CCCCC1C(=O)Nc1cccc(F)c1 (configuration not stated)
  101, 102, ., -6
CCSc1nnc(CCNC(=O)Nc2ccc(Cl)cc2C(F)(F)F)n1C
  103, 100, 5, -46
O=C(O)C1C2C=CC(C2)C1C(=O)Nc1cccc(Br)c1 (configuration not stated)
  97, 103, -3, 26*
O=C(NC1CCCC1)c1cccc2c1C(=O)N(C1CCCCC1)C2
  104, 102, -10, 8
CC1CCN(C(=O)COC(=O)Cc2ccc(Cl)cc2)CC1
  102, 103, -5, .
O=C(CSc1ncn[nH]1)N1CCOCC1
  102, 100, -21, -51
C=CCn1c(=N)c(C(=O)NCC2CCCO2)cc2c(=O)n3cccc(C)c3nc21 (configuration not stated)
  101, 103, 118, -108
CS(=O)(=O)Nc1ccc2[nH]c(=O)c(=O)[nH]c2c1
  101, 103, -24, -2
CCCn1nc(C(=O)NCCN2CCOCC2)c2ccccc2c1=O
  107, 106, 5, 8
CC(C)=CCCC1=CCC(/C=N/NC(N)=O)C(C)C1 (configuration not stated)
  102, 101, -4, 14
NC(=O)COc1ccc(S(=O)(=O)N2CCCCC2)cc1
  99, 100, -9, -16
COc1ccc(C=Nc2ccc3[nH]c(=O)[nH]c3c2)cc1OC
  103, 107, ., -11
Cc1c(C(=O)O)sc2nc(CSc3nnc(-c4ccc(F)cc4)n3C)[nH]c(=O)c12
  101, 106, -28, -2
CCCc1cc(=O)oc2cc(OCc3ccccc3)ccc12
  101, 98, ., -5
C#CC1(O)CCCCCCCCCCC1
  102, 104, ., -63
Cc1cc(C(=O)COC(=O)c2ccccc2NS(=O)(=O)c2ccc3c(c2)OCCO3)c(C)n1C
  ., ., 17, -33
CC(C)(C)S(=O)(=O)c1ccc2ccccc2c1
  112, 113, ., -9
Cc1occc1C(=O)Nc1ccc(F)c(F)c1
  110, 115, ., -20
N#CC(C(=O)O)C1C(=O)Nc2ccccc21 (configuration not stated)
  101, 100, -14, .
O=C(Nc1ccccc1)N1CCN(c2ccccc2)CC1
  102, 101, -5, -1
O=C1OC2(C(=O)c3ccccc3C2=O)/C(=C(\O)c2ccc(F)cc2)C1=O
  97, 97, 16, -25
CC(NC(=O)c1ccccc1)C1COc2ccccc2O1 (configuration not stated)
  103, 110, ., -3
O=C(Nc1ccccc1)Nc1ccc2c(c1)nc1n2CCN(Cc2ccccc2)C1
  97, 100, 2, 17
CC(C)NC(=O)CC1(C(=O)O)CCCC1
  103, 101, -11, 6
CCOc1ccccc1CNC(=O)CCC(=O)N1CC(C)Oc2ccc(Cl)cc21 (configuration not stated)
  103, 106, -10, -8
O=C(Cc1csc(-c2ccccc2)n1)N1CCCC1c1cccs1 (configuration not stated)
  107, 118, 7, -2
O=C(CCN1c2ccccc2Sc2ccccc21)N1CCN(C(=O)c2ccco2)CC1
  103, 109, -18, -23
Cc1cc(C)nc(-n2nc(C)cc2NC(=O)C(C)C)n1
  103, 106, -3, .
CCc1ccc(NC(=O)CC2C(=O)N(c3cccc(C)c3)C(=O)N2C2CC2)cc1 (configuration not stated)
  104, 104, 5, -21
COc1cc(OC)cc(-c2nnc(SCCOc3cc(C)ccc3C)o2)c1
  103, 97, 26, 13
O=C(NN1C(=O)C2C3C=CC(C3)C2C1=O)c1ccccc1 (configuration not stated)
  106, 102, -12, -17
N#Cc1ccc(CSc2nccc(=O)[nH]2)cc1
  102, 108, -4, 12
Cc1sc2nc(SCc3nnc(-c4cccs4)o3)n(C3CCCC3)c(=O)c2c1C
  100, 100, -12, -29
CCCN(CC(=O)Nc1cc(Cl)ccc1Cl)C(=O)CSc1nnc(-c2ccc(OC)cc2)o1
  100, 111, -2, -2

As a working copy, part of the list above.
Value order – Polio RdRp inh, Polio RdRp inh intensity, MbtI inh, MenB inh
C#CC1(O)CCCCCCCCCCC1
  102, 104, ., -63
Cc1cc(C(=O)COC(=O)c2ccccc2NS(=O)(=O)c2ccc3c(c2)OCCO3)c(C)n1C
  ., ., 17, -33
CC(C)(C)S(=O)(=O)c1ccc2ccccc2c1
  112, 113, ., -9

Additional entries follow:
Value order – Polio RdRp inh, Polio RdRp inh intensity, MbtI inh, MenB inh
Cc1ccc(N2CCN(S(=O)(=O)N3CCOCC3)CC2)cc1Cl
  101, 103, -2, 28
O=C1CSc2ccc(C(=O)NCc3ccccn3)cc2N1
  102, 105, 5, 6
COc1ccc(N2CCOCC2)cc1
  101, 102, -48, 21
O=C1COc2ccc(-c3csc(=Nc4ccc(F)cc4)n3/N=C/c3ccc(O)c(O)c3)cc2N1
  83*, 89*, 6, -60
COc1ccccc1N1C(=O)CCC1(C)C(=O)NCc1ccccc1 (configuration not stated)
  101, 102, -2, 1
COCCN1C(=O)/C(=C/c2c(N(C)C)nc3ccccn3c2=O)SC1=S
  73, 192, 9, -10
O=C(CN1CCN(S(=O)(=O)c2ccccc2)CC1)Nc1ccc(N2CCOCC2)cc1
  105, 107, -2, 0
CNC(=O)Nc1cccc(-c2cc(-c3c(Cl)cccc3Cl)no2)c1
  98, 127, 25, 6
Cc1ccccc1-c1nc(CS(=O)(=O)CC(=O)NCCN2CCOCC2)c(C)o1
  99, 103, -1, -3
Cc1ccc(C(=O)OCC(=O)Nc2ccc(Cl)cn2)cc1S(=O)(=O)N1CCOCC1
  109, 96, 3, -3
CNC(=O)C12CCC(C)(C(=O)C1)C2(C)C (configuration not stated)
  99, 98, -8, .
CCOCC(=O)OCc1ccc(COC(=O)COCC)cc1
  97, 118, -11, 3
COc1cc(NS(=O)(=O)c2cc(C)c(Cl)cc2C)c(C(=O)O)cc1OC
  101, 102, -26, -14
CN(C)CCNC(=O)c1cc(-c2ccccc2)nc2ccccc12
  101, 104, 116, -19
Cc1ccc2nc(S/C=C/C(=O)c3ccccc3)[nH]c2c1
  94, 92, 33, -27
COC(=O)c1cc2sccc2n1C(C)C(=O)N(C)c1ccc(F)cc1 (configuration not stated)
  102, 106, -8, -3
CCN1C(=S)SC(=O)C1=C1C=C(C)N(Cc2ccco2)C(C)=C1
  113, 211, 24, -17
COc1ccc(S(=O)(=O)NC(C)C(N)=O)cc1 (configuration not stated)
  101, 100, 3, -8
S=C(NCC1CCCO1)NC1CC1 (configuration not stated)
  101, 104, -11, -6
CCNC(=S)N1CCn2cccc2C1c1ccc(OC)cc1 (configuration not stated)
  100, 101, -24, -27
O=C(Cc1ccc(F)cc1)Nc1nncs1
  102, 107, 1, 24
Cc1ccc2oc(=O)n(CC/C(N)=N/OC(=O)c3ccccc3)c2c1
  103, 105, -2, -16
Cn1ccccc1=S
  101, 103, 24, -12
COC(=O)C1SC2(C(F)(F)F)CC1(O)c1c(c(OC)c3occc3c1OC)O2 (configuration not stated)
  99, 103, 13, -16
O/N=C1\CCCc2c1nc(-c1ccccc1Cl)n2O
  106, 102, ., -4
O=C(Nc1ccccc1O)c1cccc(S(=O)(=O)Nc2ccccc2O)c1
  102, 98, -2, 0
O=C(O)c1c2c(nc3ccccc13)-c1ccccc1CC2
  101, 100, -11, -37
Cc1cc(NS(=O)(=O)c2ccc3c(c2)CC(=O)N3)ccc1Br
  103, 107, -6, -3
C=CCn1c(=O)c2ccccc2n2c(=S)[nH]nc12
  103, 109, 32, -17
COc1ccc2c(Sc3ccc(Cl)cc3)c(C(=O)N(C)Cc3ccccc3)[nH]c2c1
  99, 113, 31, 6
CCOc1cccc(CNCCN2CCOCC2)c1
  97, 84, -2, -46
C=C/C=C1/OCO/C1=C/CC(=O)N=c1c(C#N)cc2c(=O)n3cccc(C)c3nc2n1CCCCC
  94, 94, 19, 5
CCN(Cc1ccccc1)S(=O)(=O)c1cc(Cl)ccc1Cl
  97, 101, -1, -22
CC(=O)N1Cc2ccccc2CC1C(=O)NCc1ccccc1F (configuration not stated)
  99, 103, 4, -14
CCOC(=O)N1CCN(c2ncnc3c2cnn3-c2ccccc2)CC1
  100, 101, 14, -47
c1cnc(Sc2nc3ccccc3s2)nc1
  106, 114, -4, -6
O=C(NCC1CCCO1)c1ccc(COCC(F)(F)C(F)F)cc1 (configuration not stated)
  100, 102, -2, -2
CC(=O)Nc1ccc(C(=O)OCC(=O)N2CCCCC2C)cc1 (configuration not stated)
  107, 105, -8, -2
CN(C)c1cccc(C(=O)NN2C(=O)NC3(CCCCC3)C2=O)c1
  104, 95, 3, 11
CCCc1nc2ccccc2n1CC(=O)Nc1ccc(S(=O)(=O)N(C)C)cc1
  102, 105, -5, 6

Looked up one by one from above:
Value order – Polio RdRp inh, Polio RdRp inh intensity, MbtI inh, MenB inh
C=C/C=C1/OCO/C1=C/CC(=O)N=c1c(C#N)cc2c(=O)n3cccc(C)c3nc2n1CCCCC
  94, 94, 19, 5
Cn1ccccc1=S
  101, 103, 24, -12
C=CCn1c(=O)c2ccccc2n2c(=S)[nH]nc12
  103, 109, 32, -17
O=C(Nc1ccccc1O)c1cccc(S(=O)(=O)Nc2ccccc2O)c1
  102, 98, -2, 0

(further entries)
Value order – Polio RdRp inh, Polio RdRp inh intensity, MbtI inh, MenB inh
COC(=O)C1CN(C(=O)COc2ccccc2)c2ccccc2O1 (configuration not stated)
  101, 100, 4, -5
CN(CC(=O)Nc1ccc(F)cc1)C(=O)CCc1ccccc1
  105, 107, -9, -22
CN=c1scc(-c2ccc(F)cc2)n1/N=C/c1ccc(C)o1
  99, 109, 17, -32
Cc1ccn2c(NC(=O)c3ccc(C)c(C)c3)c(-c3cccs3)nc2c1
  99, 102, -6, -22
CCCCn1c(-c2ccc(OC)cc2)nc2ccccc21
  100, 107, i, -12
Cc1cc(C)n(C)c(=O)c1C(=O)O
  102, 100, 10, -28
CCN1C=C(C(=O)OC)C(c2ccc(Cl)cc2)C(C(=O)OC)=C1
  105, 113, ., 2
CC(=O)N1CCN(c2ccc(NC(=O)COc3cc(C)c(Cl)c(C)c3)cc2)CC1
  101, 96, ., 12
C#CCN(C)Cc1ccccc1
  99, 103, 1, -21
COc1cccc(OCc2nnc(SCc3csc(Nc4ccc(C)cc4)n3)n2N)c1
  101, 111, -5, -14
C=CCC(O)(CC=C)C1CCCN1 (configuration not stated)
  103, 104, -8, -127
O=C(O)C(Cc1ccccc1)N1C(=O)CCC1=O (configuration not stated)
  100, 104, -5, .
Cc1ccc(CNCCO)o1
  103, 104, 8, 0
N#Cc1ccc(-c2cccs2)nc1SCc1ccncc1
  107, 110, ., -32
Cc1csc(/C(C#N)=N/OC(=O)c2ccco2)n1
  104, 118, 6, -94
O=C(COc1ccccc1)c1nnc(-c2ccc(Cl)cc2)o1
  101, 107, 15, -32
CSc1scc2c1/C(=N/OC(C)=O)CC(C)(C)C2
  100, 98, -2, -4
O=C(OCC(=O)N1CCCCCC1)c1ccccc1
  107, 100, -16, -10
COC(=O)C12CCC3(C(=O)OC)CC(C(=O)OC)(CC(C(=O)OC)(C1)C3=O)C2=O
  105, 101, -13, -22
COc1ccccc1OCC(=O)N/N=C1/SCC(=O)N1Cc1ccccc1
  104, 100, 6, -48
N#CCOC(=O)c1ccccc1Sc1ccccc1C#N
  109, 111, -10, -5
O=c1[nH]nc2ccccn12
  94, 110, 4, 2
c1ccc2c(c1)CC(Nc1ccc3cn[nH]c3c1)C2
  92, 96, -224, -31
COc1ccc(C(=O)OC2CCN(C)CC2)cc1
  103, 108, ., -7
Cc1ccc(C)c(Cn2cccc2C2=NC(C)(C)CO2)c1
  102, 104, -8, -9
COc1ccc(/C=N/c2ccco2)cc1
  102, 103, 9, -15
CCC(CO)NC(=S)Nc1c(C)cccc1C (configuration not stated)
  100, 103, 9, -1
CC1Cc2ccccc2N1C(=O)C1CCCO1 (configuration not stated)
  100, 102, -11, 0
Cc1ccc(N2CCN(C(=O)C(c3ccccc3)c3ccccc3)CC2)cc1C
  109, 110, ., -29
CCOC(=O)N1CCC(NC(=O)CCc2cn(Cc3ccccc3C)c3ccccc23)CC1
  104, 107, -9, -24
COc1ccc(/C=C(\C#N)S(=O)(=O)c2ccc(Cl)cc2)cc1
  106, 105, -13, 5
CN(S(=O)(=O)c1ccc2c(c1)OCCO2)S(=O)(=O)c1cccs1
  99, 101, 0, 0
Cn1c(=S)n(CN2CCC3(CC2)OCCO3)c2ccccc21
  106, 110, ., -28
O=C(O)COCC(=O)Nc1nc(SCc2ccc(Cl)cc2)n[nH]1
  105, 104, 4, -8
Cc1ccc(CN2C(=O)NC(c3ccc(F)cc3)C2=O)cc1 (configuration not stated)
  103, 102, 5, -3
O=C(O)CCCC1OC(CCCC(=O)O)OC(CCCC(=O)O)O1 (configuration not stated)
  102, 102, -15, -18
Cc1cc(CS)cs1
  100, 102, -5, 8
COC(=O)C1=C(C)NC(=O)N(C(C)=O)C1c1ccc(OC)cc1 (configuration not stated)
  104, 101, 4, 10
COc1ccc(OCCn2c(=O)n(CCOc3ccc(OC)cc3)n(-c3ccccc3)c2=O)cc1
  104, 100, 6, -7
